BasE inh: BasE siderophore enzyme inhibitors, primary screen, biochemical, Acinetobacter baumannii ATCC 17978, fluorescence polarization. purified BasE, fluorescence polarization binding displacement. inhibition, % (no concentration beside the values). actives 0.1% (n = 84,000);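 active means both replicates above 25% with normal brightness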;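 further: 0% = negative plate control signal and 100% = positive plate control signal; stock transfer was 100 nL into about 30 µL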
LANA-nucl inh: inhibitors of KSHV LANA-nucleosome binding, primary screen, biochemical, fluorescence polarization, FITC-LANA1-23, chicken nucleosomes | FITC-LANA1-23 / chicken nucleosome fluorescence polarization; active compounds read low | z-score (test concentration not listed) | actives 0.3% (n = 51,000) | AID 720717, 2013;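 active means both repeat wells score below -2 in polarization z-score versus plate sample wells, excluding overly bright wells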;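 further: 100 nL library stock added to about 30 µL; numbers are from one replicate; some results filed as inactive read as strong as hits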
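Material: Purified chicken nucleosomes with FITC-labelled LANA N-terminal peptide (1-23) | Reagent: 50 nM FITC-LANA1-23 probe | Medium: TEN-BT buffer, pH 7.5 | Times: 10–45 min incubation at room temperature | Detection: Fluorescence polarization | Replication: Duplicates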
Active calls of the source: *; . = not tested or not shown; & = joins results of further samples. Not all compounds are listed; rates above refer to the full screens.

canonical_smiles	BasE inh	LANA-nucl inh
CSc1nc(C)cc(OCCNC(=O)Nc2ccccc2)n1	0.2	0.56
CCn1c(SCC(=O)N2CCc3ccccc32)nnc1C(C)C	0.1	-1.1
Cc1nc(-c2ccccn2)nc(SCC(=O)c2ccc(F)cc2)c1Cl	-0.3	.
CC(C)(C)C(=O)Cn1cnc2ccccc2c1=O	0.6	.
CCOC(=O)COc1ccccc1/C=C1\N=C(SCC)SC1=O	22	.
CCOC(=O)c1ccc(S(=O)(=O)n2c(=O)oc3ccccc32)cc1	5.3	.
CC1CCN(CC(=O)C(C#N)c2ccccc2)CC1 (configuration not stated)	1.7	-0.9
CCCc1cc(-c2[nH]ncc2-c2ccc(C(=O)NN)o2)c(O)cc1O	2.7	.
CC1CCN(C(=O)COC(=O)c2nccnc2N)CC1	1.2	.
CCOC(=O)c1c(NC(=O)CSc2ncn(-c3ccccc3)n2)sc2c1CCCC2	5.3	0.73
COc1ccc(N2CCN(C(=O)c3cc4sccc4n3Cc3ccccc3)CC2)cc1	-1.1	-0.4
O=C1NC(=O)C(=Cc2ccc(OCc3ccc(C(=O)O)o3)cc2)C(=O)N1	-0.2	-0.51
O=C(NCc1ccccc1)Nc1ccc(Cl)cc1	-1.8	1.7
O=C(NCC1CCCO1)c1cc2ccccc2o1 (configuration not stated)	0.9	-1.9
Cc1cccc(N=C2NN=C(c3cc(C)n(C)c3C)CS2)c1C	0.4	.
CCOC(=O)Cn1c(-c2cccnc2)nc(-c2ccccc2)c1-c1ccccc1	1.8	.
COC(=O)Cc1csc(Nc2ccc(Cl)cc2)n1	0.1	.
CCOc1ccc(NC(=O)COC(=O)CC2CCCCC2)cc1	-0.8	.
Cn1ncc(C(=O)Sc2ccc(Cl)cc2)c1-n1cccc1	1.3	.
Cc1ccccc1N(C)C(=O)c1coc(=O)c2ccccc12	0.1	-0.18
CC(C)C(=O)Nc1c(-c2nc(-c3ccccc3)cs2)cnn1-c1ccccc1	-2.2	.
NNC(=O)c1ccc[nH]1	4.8	0.57
COc1ccc(C(CC(=O)NCc2ccccn2)N2Cc3ccccc3C2=O)cc1OC (configuration not stated)	-0.7	-0.67
COc1cc2c(cc1OC)N1C(=O)c3ccccc3C1(O)OC2=O (configuration not stated)	-0.1	.
CCn1c2ccccc2c2cc(NC(=O)CO)ccc21	2.3	.
c1ccc(N2CCN(N=C3c4ccccc4-c4ccccc43)CC2)nc1	0.5	1.4
COc1cccc(/C=N/N=C(N)N)c1O	0.7	-0.75
Nn1c(SCC(=O)Nc2ccc3c(c2)OCO3)nnc1-c1ccc(Cl)cc1	3.7	.
CN1[C@@H]2CC[C@H]1CC(OC(=O)c1c[nH]c3ccccc13)C2 (some centres not stated)	.	-1&-0.2
Cc1ccc2nc(C3CCCCC3)cc(C(=O)O)c2c1	2.1	0.25
O=C1C=CC(=O)N1Nc1ccccc1	-0.2	0.67
Clc1ccc2oc(-c3cccnc3)nc2c1	-2.8	.
FC(F)Oc1ccc(Cl)cc1CSc1ncccn1	-1.3	.
O=C(NCc1ccccc1)NC1CCCCC1	-0.2	.
CC1Cc2ccccc2N1CC(=O)NCc1cccs1 (configuration not stated)	1.4	.
COc1ccccc1N1CCNCC1=O	2.9	0.76
O=C(CCSc1nnc(-c2ccccc2)o1)Nc1ccc(F)cc1	3.2	-0.77
Oc1ccccc1-c1csnn1	.	0.39
COc1cccc(-c2nnc(-c3ccc(C)o3)o2)c1	-3.9	-0.58
CCOc1ccccc1N(C)C(=O)Cc1noc2ccccc12	-1.1	0.42
O=c1c(Cl)c(N2CCCCC2)cnn1-c1ccccc1	0.1	.
CCOC(=O)c1ccc2nc(C(F)(F)F)nc(NCCCN3CCOCC3)c2c1	-23	-1.1
CCC1(c2cccc(OC(=O)Nc3ccc(OC(F)(F)F)cc3)c2)CCCCN(C)C1=O (configuration not stated)	2.3	.
N#Cc1ccc(-c2cccnc2)n(CC(=O)NCc2ccccc2)c1=O	2.8	-0.61
Cc1ccccc1NC(=O)Cc1nnc(SCC(=O)c2ccccc2)n1C	1.6	0.15
O=C(Nc1ccc(N2CCCCC2)cc1)c1cc(C(F)(F)F)cc(C(F)(F)F)c1	.	-0.23
Cc1cc(C)c2c(n1)SCCN2C(=O)Nc1ccc(C(=O)N2CCCCC2)cc1	-1.5	.
O=S(=O)(NNc1ccc(F)cc1F)c1ccc(Cl)cc1	-1.0	0.89
CC(c1ccccc1)n1cnc2cc(N)ccc21 (configuration not stated)	1.9	0.85
COc1ccc(-c2cc(=O)oc3cc(O)c(Cl)cc23)cc1	1.8	-0.055
Nc1nonc1C(=O)NN=c1c(=O)c2ccccc2c1=O	1.0	0.65
C=CCN1C(=O)SC(CC(=O)Nc2ccccc2)C1=O (configuration not stated)	-2.8	-0.18
CC(=O)N1Cc2ccccc2CC1C(=O)OCc1ccc(C#N)cc1 (configuration not stated)	0.8	.
O=C(O)c1ccc(C(=O)O)s1	1.4	.
O=C(CN(Cc1ccccc1)S(=O)(=O)c1ccccc1)NC1=NCCS1	-0.9	.
CSc1cccc(NS(=O)(=O)c2ccc3[nH]cc(C(=O)N(C)CCC#N)c(=O)c3c2)c1	-1.5	0.84

(next part)
canonical_smiles	BasE inh	LANA-nucl inh
CCN1CCN(CCNC(=O)c2ccc(CS(=O)c3ccccc3C)o2)CC1 (configuration not stated)	0.0	-0.43
COc1ccc(C(=O)O)cc1S(=O)(=O)N(C)c1ccccc1	1.9	-0.23
Cn1nc(C(F)(F)F)c(-c2ccc(Br)cc2)c1NC(=O)c1ccco1	-0.9	-1
O=C1S/C(=C/c2ccc(F)cc2)C(=O)N1CN1CCCCC1	0.1	-0.53
CCOC(=O)C(C)Oc1ccc2c(=O)c(-c3csc(C)n3)coc2c1 (configuration not stated)	-2.0	.
C=CCOc1c(CNc2ccc(C(=O)O)cc2)cccc1OCC	0.9	0.13
Cc1cccc2[nH]ncc12	25*	0.32
Cn1c2ncnc-2c(O)n(C)c1=O	.	1.6
C=CCn1c(C)cc(C(=O)COC(=O)C2C(C(=O)OCC)=C(C)NC(C)=C2C(=O)OCC)c1C	-4.5	.
Cc1ccc(Sc2c(-c3ccccc3)nc3sccn23)cc1	16	.
O=C1N/C(=N/N=C/c2cccs2)SC1Cc1ccccc1 (configuration not stated)	-1.9	-0.32
CCSc1nnc(NC(=O)C(C)Sc2ccccc2)s1 (configuration not stated)	1.9	0.53
O=C(Nc1ccc(F)cc1)Nc1ccc2c(c1)C(=O)OC2	0.7	.
CCCCC1(c2ccccc2)NC(=O)NC1=O (configuration not stated)	0.5	.
O=C(O)C1C2C=CC(C2)C1C(=O)NC1CCN(Cc2ccccc2)CC1 (configuration not stated)	2.0	-0.53
C=CCC1CC(=O)N(c2ccc(Cl)cc2)C1=O (configuration not stated)	-0.7	1.4
CC(=O)Nc1ccccc1C(=O)C(=S)N1CCN(C)CC1	-0.1	.
O=C(COc1ccccc1F)NN1C(=O)NC2(CCCCC2)C1=O	-1.0	.
COc1ccc2oc(C(=O)OCC#N)c(C)c2c1	1.2	.
CC(OC(=O)c1cccnc1)C(=O)Nc1ccc2c(c1)OCO2 (configuration not stated)	0.1	.
COc1ccc2cc(-c3nc(N)ncc3C)ccc2c1Br	.	-1.2
Cc1ccc(NC(=O)CSc2ncccn2)c(S(=O)(=O)N2CCCCC2)c1	1.0	.
COc1ccc(N2C(=O)CC(N3CCCCC3C)C2=O)cc1 (configuration not stated)	-3.0	2.3
O=C(NC1CCCCC1)C(c1ccccn1)N(C(=O)Cn1nnc(-c2ccccc2)n1)c1ccc2c(c1)OCO2 (configuration not stated)	0.7	-0.1
CC(=O)NCc1ccc(C(=O)CSc2nc(C)nc3scc(-c4cccs4)c23)o1	0.0	.
CC(C#N)OC(=O)c1c(-n2cccc2)sc2c1CCCC2 (configuration not stated)	-6.2	.
NCCCOc1ccccc1	-1.6	.
O=C(CSc1nnnn1-c1ccccc1)N1c2ccccc2CCc2ccccc21	-1.8	.
COc1ccc(NC(=O)CSc2c(C)nn(-c3nnc(C)c(=O)[nH]3)c2C)cc1	-2.5	0.9
C=CCNC(=O)/C=C/c1ccc(C(C)C)cc1	-1.4	.
Cc1noc(C)c1COc1ccc(C(=O)NCCNc2ncc(C(F)(F)F)cc2Cl)cc1	0.4	.
COc1ccc2oc(=O)c(-c3nnc(-c4ccccc4)o3)cc2c1	-0.8	0.92
CCN(CC)C(=O)Cn1cc(S(=O)(=O)CC#N)c2ccccc21	0.7	-0.38
Cc1cc(C)c(C)c(S(=O)(=O)N2CCN(CN3C(=O)CNC3=O)CC2)c1C	1.3	.
O=C1C2N=NN(CC(=O)N(c3ccccc3)c3ccccc3)C2C(=O)N1c1ccc(Cl)cc1 (configuration not stated)	2.6	-0.32
CCSc1ccccc1C(=O)NCCO	-1.1	1.8
Cc1nc2nc(C)c(NS(=O)(=O)c3ccc(Cl)s3)c(=O)n2[nH]1	2.3	-0.85
Clc1ccc2c(c1)C1C=CCC1C(c1ccccc1)N2 (configuration not stated)	1.3	.
CC(C)=C(C#N)c1nc2ccccc2s1	-0.4	0.3
CC(SCC(=O)Nc1ccccc1)c1nc2ccccc2c(=O)[nH]1 (configuration not stated)	1.0	0.015
CSc1sc(Cl)c2c1/C(=N\O)CC(C)(C)C2	1.7	.
COc1ccc2nc(SC)c(C#N)cc2c1	0.5	0.33
CCOc1ccc2c(=O)c(-c3ccccc3)c(C)oc2c1	-0.1	-0.18
C(=Nc1nc2ccccc2nc1N1CCOCC1)N1CCN(C(c2ccccc2)c2ccccc2)CC1	-1.2	.
CC1CCN(CC(=O)n2c3ccccc3c3ccccc32)CC1	0.0	-0.059
Cc1c(Cl)ccc2c(C(=O)Nc3cc(C(C)(C)C)on3)cc(-c3ccccn3)nc12	-1.4	-1
Cc1ccccc1-c1nsc(SCC(=O)NCc2ccco2)n1	3.5	-0.57
CCc1nc(NCCCO)c2nnn(Cc3ccccc3F)c2n1	-2.5	-0.87
C#CCN1C(=O)S/C(=C/c2ccc(N3CCCCC3)cc2C)C1=O	-14	1.5
CCOC(=O)c1cc(=O)c(-c2ccccc2)n[nH]1	-1.8	-0.22
CCCc1cc(C(=O)Nc2sc(C)c(C)c2C(=O)OCC)no1	1.4	-0.26
CCOc1cccc(/C=N\NC(=O)c2ccco2)c1O	-2.7	0.5
O=C(NCC(c1cccs1)S(=O)(=O)c1cccs1)Nc1ccc(Cl)cc1 (configuration not stated)	-7.0	-1.1
Cc1ccc(C(=O)OCN2C(=O)c3ccccc3C2=O)cc1NC(=O)c1ccco1	0.7	.
O=C(Cc1ccccc1)Nc1ccc2oc(-c3ccc(Br)cc3)nc2c1	7.1	-0.1
CCN(CC(=O)NCc1ccc(Cl)cc1)C(=O)c1c(C)noc1C	1.0	.

Grouped by structure: the compounds so far containing a cyano group (nine)
canonical_smiles	BasE inh	LANA-nucl inh
CC1CCN(CC(=O)C(C#N)c2ccccc2)CC1 (configuration not stated)	1.7	-0.9
N#Cc1ccc(-c2cccnc2)n(CC(=O)NCc2ccccc2)c1=O	2.8	-0.61
CC(=O)N1Cc2ccccc2CC1C(=O)OCc1ccc(C#N)cc1 (configuration not stated)	0.8	.
CSc1cccc(NS(=O)(=O)c2ccc3[nH]cc(C(=O)N(C)CCC#N)c(=O)c3c2)c1	-1.5	0.84
COc1ccc2oc(C(=O)OCC#N)c(C)c2c1	1.2	.
CC(C#N)OC(=O)c1c(-n2cccc2)sc2c1CCCC2 (configuration not stated)	-6.2	.
CCN(CC)C(=O)Cn1cc(S(=O)(=O)CC#N)c2ccccc21	0.7	-0.38
CC(C)=C(C#N)c1nc2ccccc2s1	-0.4	0.3
COc1ccc2nc(SC)c(C#N)cc2c1	0.5	0.33

Additional structures
canonical_smiles	BasE inh	LANA-nucl inh
Nc1cc(=O)[nH]c(SCc2csc(-c3ccccc3)n2)n1	0.3	.
CCOCc1c(C(=O)N2CCN(c3ncccn3)CC2)oc2ccccc12	1.1	.
O=c1c2c3c(sc2[nH]c(=S)n1Cc1ccccc1)CCC3	2.4	.
Cc1onc(-c2ccccc2)c1C(=O)N(Cc1ccccn1)Cc1ccccn1	-0.2	0.86
CCc1ccc(N=Cc2c[nH]c3ccccc23)cc1	-1.9	.
COC(=O)c1cccc(OCc2nn[nH]n2)c1	1.2	0.55
CN(Cc1ccccc1)Cc1cc(=O)n2nc(C3CC3)sc2n1	1.0	0.95
CCN(CC)C(=O)/C=C/c1ccc2c(c1)OCO2	-1.6	-0.85
CS/C(=N\S(=O)(=O)c1ccccc1)N1CCCC1	2.5	.
O=C(O)c1ccc2c(=O)n3c(nc2c1)CCC3	-2.2	.
CCOC(=O)N1CCC(=NNC(=O)c2ccccc2)CC1	0.2	.
CN1C[C@H](C(=O)N[C@]2(C)O[C@@]3(O)[C@@H]4CCCN4C(=O)[C@H](Cc4ccccc4)N3C2=O)C[C@@H]2c3cccc4[nH]cc(c34)C[C@H]21	-3.0&0.0	0.85&0.072&-0.24
COC(=O)c1ccc(S(=O)(=O)N2CCCN(C(=O)c3cccs3)CC2)n1C	-1.6	1.4

Screening data as filed in PubChem.
